Bioassay records as filed in PubChem BioAssay.
Vaccinia inh: blocks a specific stage of Vaccinia orthopoxvirus infection, primary screen, cell-based, single point. actives 0.01% (n = 89,000). AID 1053133, 2014. activity change (mCherry), % (no concentration beside the values). Vaccinia-infected cells, mCherry/Venus stage reporter fluorescence; hits give low values; some inactives read as strong as hits;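 active means mCherry past -33% and 40 or more points under the early reporter, replicates agreeing; inconclusive means past -33% without that gap or agreement; tested in A549 cells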;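 further: scaled between vehicle wells and reference inhibitor wells; 23 nL library stock went into each well; one replicate is shown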
Vaccinia inh Venus: second read-out of Vaccinia inh, no call of its own (marks repeat the call); activity change (Venus), %; measured here: Venus reporter, other viral stage;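 negative = less Venus signal; first of two replicates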
Starred values were filed as active, the others as inactive; ? = inconclusive; . = not tested or not shown.

#	SMILES	Vaccinia inh	Vaccinia inh Venus
1	C[C@@H]1CCCCO[C@@H](CN(C)C(=O)c2ccncc2)[C@H](C)CN([C@@H](C)CO)C(=O)c2cc(NS(=O)(=O)c3ccc(Cl)cc3)ccc2O1	31	12
2	C[C@H](CO)N1C[C@H](C)[C@H](CN(C)Cc2ccc(Oc3ccccc3)cc2)Oc2ccc(NC(=O)CCN3CCOCC3)cc2C1=O	-15	-13
3	COc1ccc(S(=O)(=O)Nc2ccc3c(c2)CC(=O)N([C@H](C)CO)C[C@H](C)[C@@H](CN(C)C)O3)cc1	20	5
4	COc1ccc(CN2CC3(CCN(C(=O)Cc4ccncc4)CC3)c3c([nH]c4cc(OC)ccc34)[C@@H]2CO)cc1	4	9
5	C[C@@H]1CCCCO[C@H](CN(C)Cc2ccc(C(F)(F)F)cc2)[C@H](C)CN([C@@H](C)CO)C(=O)c2cc(N(C)C)ccc2O1	-11	-12
6	C[C@@H]1CCCCO[C@H](CN(C)S(=O)(=O)c2ccc(Cl)cc2)[C@H](C)CN([C@H](C)CO)C(=O)c2cc(NS(=O)(=O)c3cccs3)ccc2O1	-1	-7
7	CO[C@@H]1CN(C)C(=O)c2cc(NS(=O)(=O)c3ccc(F)cc3)ccc2OC[C@@H](C)NC[C@@H]1C	11	5
8	CC(C)NC(=O)Nc1ccc2c(c1)C(=O)N([C@@H](C)CO)C[C@H](C)[C@@H](CN(C)S(=O)(=O)c1ccccc1)O2	15	11
9	Cc1noc(C)c1NC(=O)N(C)C[C@H]1Oc2c(NC(=O)c3cnccn3)cccc2C(=O)N([C@H](C)CO)C[C@H]1C	7	5
10	C/C=C/c1ccc([C@@H]2[C@@H](CO)N(C(=O)NC(C)C)[C@H]2CN(C)C(C)=O)cc1	16	22
11	CNC[C@@H]1Oc2ccc(NS(=O)(=O)c3cn(C)cn3)cc2C(=O)N([C@@H](C)CO)C[C@@H]1C	-6	-4
12	C[C@@H]1CN([C@H](C)CO)C(=O)c2cccc(NS(=O)(=O)c3cn(C)cn3)c2O[C@@H]1CN(C)Cc1ccc(C(=O)Nc2ccccc2N)cc1	16	10
13	O=C(Nc1ccccc1)[C@@H]1[C@@H](CO)[C@@H]2Cn3c(cccc3=O)[C@@H]2N1C(=O)C1CCCC1	15	8
14	C[C@@H](O)C#Cc1ccc([C@@H]2[C@H]3CN(C(=O)c4ccncc4)CCCCN3[C@H]2CO)cc1	26	14
15	C[C@@H]1CCCCO[C@H](CN(C)Cc2ccc3c(c2)OCO3)[C@H](C)CN([C@@H](C)CO)C(=O)c2cc(NS(=O)(=O)c3ccc(Cl)cc3)ccc2O1	?	.
16	CCCN(C)C[C@@H]1Oc2cc(C#Cc3cccc(F)c3)ccc2S(=O)(=O)N([C@H](C)CO)C[C@@H]1C	-21	-13
17	Cc1ccc(S(=O)(=O)Nc2ccc3c(c2)C(=O)N([C@@H](C)CO)C[C@@H](C)[C@H](CN(C)S(=O)(=O)c2ccc(C)cc2)O3)cc1	-8	-3
18	O=C(C[C@@H]1CC[C@@H](NC(=O)Nc2cc(F)ccc2F)[C@@H](CO)O1)NCc1ccccn1	5	3
19	O=C(Cc1ccccn1)N1CCCCN2[C@H](CO)[C@@H](c3ccc(-c4ccccc4)cc3)[C@@H]2C1	-3	-7
20	C/C=C/c1ccc2c(c1)O[C@@H](CN(C)C(=O)CN(C)C)[C@@H](C)CN([C@@H](C)CO)S2(=O)=O	5	6
21	COc1ccc(CN(C)C[C@H]2OCCCC[C@@H](C)Oc3ccc(NC(=O)NC4CCCCC4)cc3C(=O)N([C@@H](C)CO)C[C@@H]2C)cc1	?	.
22	C[C@@H]1CN([C@H](C)CO)C(=O)c2cc(C#Cc3cccc(F)c3)cnc2O[C@H]1CN(C)C(=O)C1CCC1	-21	-26
23	COc1cccc(CNC(=O)C[C@H]2CC[C@H](NS(=O)(=O)c3ccccc3OC)[C@@H](CO)O2)c1	1	-3
24	C[C@H](O)C#Cc1ccc2c(c1)O[C@@H](CN(C)C(=O)c1ccccc1)[C@H](C)CN([C@H](C)CO)S2(=O)=O	13	10
25	C[C@@H]1CN([C@@H](C)CO)C(=O)c2cc(NC(=O)Cn3cnnn3)ccc2O[C@@H]1CN(C)S(=O)(=O)c1ccc(Cl)cc1	11	10
26	CC(C)NC(=O)N(C)C[C@@H]1Oc2c(NC(=O)c3nc4ccccc4s3)cccc2C(=O)N([C@H](C)CO)C[C@H]1C	6	-4
27	CC(C)C#Cc1ccc([C@H]2[C@@H](CO)N3CCCCN(C(=O)c4ccc5c(c4)OCO5)C[C@@H]23)cc1	?	.
28	CCC(=O)N1[C@H](CN(C(C)C)S(C)(=O)=O)[C@@H](c2ccccc2)[C@@H]1CO	9	12
29	COCC(=O)N(C)C[C@H]1Oc2ncc(C#Cc3ccc(F)cc3)cc2C(=O)N([C@@H](C)CO)C[C@H]1C	6	-3
30	Cc1noc(C)c1NC(=O)N(C)C[C@H]1Oc2ncc(C#CC3CCCCC3)cc2C(=O)N([C@@H](C)CO)C[C@@H]1C	-7	-4
31	COc1ccc(NC(=O)N(C)C[C@H]2Oc3c(NC(=O)Nc4ccccc4)cccc3C(=O)N([C@H](C)CO)C[C@H]2C)cc1	-8	-6
32	C[C@@H]1CN([C@@H](C)CO)C(=O)c2cc(C#Cc3cccc(F)c3)cnc2O[C@H]1CN(C)CC1CCCC1	?	.
33	NCC[C@@H]1CC[C@H](NC(=O)C2CC2)[C@H](CO)O1	1	-1
34	C[C@H]1CN([C@@H](C)CO)C(=O)c2cc(-c3ccccc3F)cnc2O[C@@H]1CN(C)C(=O)C1CC1	12	-2
35	COc1cccc(-c2ccc3n(c2=O)C[C@H]2[C@H](CO)[C@@H](C(=O)NC4CCC4)N[C@@H]32)c1	7	1
36	CCc1csc(N2[C@H](C#N)[C@H](c3ccc(C4=CCCC4)cc3)[C@@H]2CO)n1	-13	-4
37	CO[C@H]1CN(C)C(=O)c2ccc(NC(=O)c3cccc(Oc4ccccc4)c3)cc2OC[C@@H](C)NC[C@H]1C	?	.
38	C[C@@H]1CCCCO[C@@H](CN(C)CC2CC2)[C@@H](C)CN([C@H](C)CO)C(=O)c2cc(NS(=O)(=O)c3ccc(Cl)cc3)ccc2O1	-2	-6
39	Cc1noc(C)c1NC(=O)N(C)C[C@@H]1Oc2ccc(NS(=O)(=O)c3ccccc3)cc2C(=O)N([C@H](C)CO)C[C@H]1C	8	16
40	C[C@@H]1CN([C@H](C)CO)S(=O)(=O)c2ccc(-c3ccncc3)cc2O[C@@H]1CN(C)C(=O)Nc1ccc(F)cc1	5	-2

Some of the entries above, reformatted.
40. C[C@@H]1CN([C@H](C)CO)S(=O)(=O)c2ccc(-c3ccncc3)cc2O[C@@H]1CN(C)C(=O)Nc1ccc(F)cc1
  Vaccinia inh: 5 | Vaccinia inh Venus: -2

36. CCc1csc(N2[C@H](C#N)[C@H](c3ccc(C4=CCCC4)cc3)[C@@H]2CO)n1
  Vaccinia inh: -13 | Vaccinia inh Venus: -4

Other records.
#	SMILES	Vaccinia inh	Vaccinia inh Venus
41	COc1cccc(-c2ccc3c(c2)O[C@@H](CN(C)C(=O)C2CCOCC2)[C@H](C)CN([C@@H](C)CO)S3(=O)=O)c1	17	2
42	C[C@@H]1CN([C@@H](C)CO)C(=O)c2cc(-c3ccncc3)cnc2O[C@H]1CN(C)Cc1cccnc1	12	14
43	C[C@@H]1CCCCO[C@@H](CN(C)Cc2ccncc2)[C@H](C)CN([C@@H](C)CO)C(=O)c2cc(NC(=O)Nc3ccc(C(F)(F)F)cc3)ccc2O1	?	.
44	C[C@H](CO)N1C[C@H](C)[C@@H](CN(C)Cc2ccc(-c3ccccc3)cc2)Oc2c(NS(=O)(=O)c3ccccc3)cccc2C1=O	-9	-18
45	COc1ccc(S(=O)(=O)N2CCN(Cc3cccc(OCCO)c3)CC2)cc1	2	0
46	COc1ccc2c3c([nH]c2c1)[C@H](CO)N(C(C)=O)CC31CCN(C(=O)c2cccc(F)c2)CC1	22	14
47	O=C(CC1CC1)N[C@@H]1CC[C@H](CCNS(=O)(=O)c2ccc(Cl)cc2)O[C@@H]1CO	4	1
48	C[C@@H]1CN([C@@H](C)CO)C(=O)c2cc(NC(=O)Nc3cccc4ccccc34)ccc2O[C@@H](C)CCCCO[C@H]1CN(C)Cc1ccccc1	?	.
49	C/C=C/c1ccc([C@@H]2[C@H](CO)N(CCC(F)(F)F)C23CN(C(=O)CN(C)C)C3)cc1	-19	-6
50	COc1ccc(C#Cc2cnc3c(c2)C(=O)N([C@@H](C)CO)C[C@@H](C)[C@H](CN(C)C(=O)CN(C)C)O3)cc1	-21	-9
51	C[C@@H]1CN([C@H](C)CO)C(=O)c2cc(C#CC3(O)CCCC3)cnc2O[C@H]1CN(C)C(=O)Cc1ccncc1	4	-2
52	C[C@@H]1CCCCO[C@H](CN(C)Cc2ccncc2)[C@@H](C)CN([C@@H](C)CO)C(=O)c2cc(NC(=O)c3ccccc3)ccc2O1	-12	-12
53	C[C@@H]1CN([C@H](C)CO)C(=O)c2cccc(NC(=O)NC3CCCCC3)c2O[C@@H]1CN(C)C(=O)Nc1ccc(F)cc1	-1	2
54	C[C@H](NC(=O)C[C@H]1C=C[C@H](NC(=O)C2CCOCC2)[C@@H](CO)O1)c1ccccc1	8	-2
55	CN(C)C(=O)[C@@H]1[C@@H](CO)[C@@H]2Cn3c(cccc3=O)[C@@H]2N1C(=O)C1CCC1	4	-1
56	C[C@H](CO)N1C[C@H](C)[C@H](CN(C)Cc2ccc(Cl)c(Cl)c2)Oc2c(NC(=O)c3ccncc3)cccc2C1=O	27	15
57	CN1CCN(C(=O)C[C@@H]2CC[C@@H]3[C@H](COc4ccc(NC(=O)C5CCCCC5)cc4C(=O)N3C)O2)CC1	-3	-6
58	COc1ccc(NC(=O)N2CCCCN3[C@H](CO)[C@@H](c4ccc(-c5ccccc5F)cc4)[C@H]3C2)cc1	?	.
59	COc1ccccc1S(=O)(=O)N[C@@H]1C=C[C@H](CC(=O)NCc2cccc(F)c2)O[C@H]1CO	5	8
60	CN1[C@@H]2c3cccc(=O)n3C[C@@H]2[C@@H](CO)[C@@H]1C(=O)NCCc1ccccc1	7	7
61	O=C(C[C@@H]1CC[C@@H]2[C@H](COC[C@H](O)CN2C(=O)Nc2ccccc2)O1)NCCCN1CCOCC1	-1	-1
62	CO[C@H]1CN(C)C(=O)c2cc(NS(=O)(=O)c3ccc(C)cc3)ccc2OC[C@@H](C)NC[C@H]1C	9	9
63	COc1cccc(-c2cnc3c(c2)C(=O)N([C@H](C)CO)C[C@H](C)[C@H](CN(C)C(=O)Nc2cccc4ccccc24)O3)c1	-9	0
64	CC(C)NC(=O)N(C)C[C@@H]1Oc2ccc(NC(=O)Nc3ccccc3)cc2C(=O)N([C@@H](C)CO)C[C@@H]1C	3	2
65	CCCNC(=O)C[C@H]1CC[C@@H]2[C@@H](COc3ccc(NC(=O)c4ccc(Cl)cc4)cc3C(=O)N2C)O1	-30	-18
66	C[C@@H]1CN([C@@H](C)CO)C(=O)c2cc(NS(=O)(=O)c3ccccc3)ccc2O[C@@H]1CN(C)Cc1ccc(Cl)c(Cl)c1	?	.
67	COCC(=O)Nc1ccc2c(c1)C(=O)N(C)C[C@@H](OC)[C@@H](C)CN(CC1CCCCC1)[C@H](C)CO2	-11	-5
68	COc1cccc(S(=O)(=O)N[C@H]2CC[C@H](CC(=O)NCc3ccncc3)O[C@H]2CO)c1	2	-1
69	CCC(=O)N1CC2(C1)[C@H](c1ccc(-c3ccc(F)cc3)cc1)[C@@H](CO)N2C(=O)CC	-1	-1
70	C[C@@H]1CCCCO[C@H](CN(C)S(=O)(=O)c2ccc(F)cc2)[C@@H](C)CN([C@H](C)CO)C(=O)c2cc(NC(=O)Nc3ccc4c(c3)OCO4)ccc2O1	7	-1
71	O=C(CC1CC1)Nc1ccc2c(c1)[C@@H]1C[C@H](CC(=O)N3CCCCC3)O[C@@H](CO)[C@@H]1O2	4	6
72	Cc1noc(C)c1NC(=O)Nc1ccc2c(c1)CC(=O)N([C@H](C)CO)C[C@H](C)[C@H](CN(C)S(=O)(=O)c1c(C)noc1C)O2	13	15
73	C[C@@H]1CN([C@H](C)CO)C(=O)c2cc(NC(=O)CCC(F)(F)F)ccc2O[C@@H]1CN(C)CC1CCCCC1	-12	-13
74	C[C@H]1CN([C@@H](C)CO)S(=O)(=O)c2ccc(-c3ccccc3)cc2O[C@H]1CN(C)Cc1ccncc1	-13	-17

Rewritten with each value named: 3 of the compounds above
61: O=C(C[C@@H]1CC[C@@H]2[C@H](COC[C@H](O)CN2C(=O)Nc2ccccc2)O1)NCCCN1CCOCC1
  Vaccinia inh: -1 | Vaccinia inh Venus: -1

8: CC(C)NC(=O)Nc1ccc2c(c1)C(=O)N([C@@H](C)CO)C[C@H](C)[C@@H](CN(C)S(=O)(=O)c1ccccc1)O2
  Vaccinia inh: 15 | Vaccinia inh Venus: 11

50: COc1ccc(C#Cc2cnc3c(c2)C(=O)N([C@@H](C)CO)C[C@@H](C)[C@H](CN(C)C(=O)CN(C)C)O3)cc1
  Vaccinia inh: -21 | Vaccinia inh Venus: -9

Not all compounds are listed; count on the stated rates, not on these rows.
